Source: PubChem BioAssay (ICCB-Longwood Screening Facility, Harvard Medical School)
MgrA DNA FP – S. aureus MgrA activity modulators, primary screen, biochemical, S. aureus Newman, fluorescence polarization | MgrA-DNA binding | inhibition, %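 (about 10 µg/mL by stock and volumes)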 | actives 0.13% (n = 84,000);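 active = above 50% in either of two replicates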;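 note: 0% = protein plus DNA without compound and 100% = DNA alone without protein; higher means less MgrA bound to DNA so lower polarization; one replicate is shown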
S aureus helic – inhibitors of S. aureus replicative helicase, primary screen, biochemical, fluorescence unwinding readout. inhibition, %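 (tested at about 80 µM)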. purified S. aureus helicase, fluorescence unwinding assay; about half of the hits fall short of the stated cut. AID 485395, 2010. actives 0.05% (n = 120,000). replicative DNA helicase (DnaC/DnaB), Staphylococcus aureus;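 active = both duplicates at 50% or more, or one of them with a favoured structure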;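 note: 0% = mean of negative control wells and 100% = mean of positive control wells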
* = called active by the depositor; / = not tested or not shown. A portion of the library; rates above refer to the full screens.

SMILES | MgrA DNA FP | S aureus helic
Cc1ccc(C)c(Cn2c3ccccc3c3cnn(CC(=O)NCCN4CCN(C)CC4)c(=O)c32)c1 | / | -4
O=C(C1CCCN(S(=O)(=O)c2ccc3nc(-c4ccccc4)[nH]c3c2)C1)N1CCOCC1 (stereo unspecified) | / | -20
Cc1cc2c(cc1C)CSC(C)(c1ccc([N+](=O)[O-])cc1)SC2 | -1.0 | /
CSC1=NC2(CCN(C(=O)OC(C)(C)C)CC2)N=C1c1ccccc1 | / | -14
CC1CCCC(C)N1C(=O)C1CCCCC1C(=O)O (stereo unspecified) | -0.7 | 16
O=C(NCc1nc2ccccc2c(=O)[nH]1)c1ccccc1 | 3.7 | -9
O=S(=O)(NCC(c1ccccc1)N1CCNCC1)c1ccc(Cl)cc1 (stereo unspecified) | / | 7
Cc1cccc2c1-c1sc(C(=O)Nc3ccc(S(N)(=O)=O)cc3)cc1CO2 | 1.1 | 0
CCCC/C(C)=N/N1C(C)CCCC1C (stereo unspecified) | / | 5
O=C(Oc1ccc(Oc2ccccc2)cc1)c1cccs1 | 0.6 | /
CCc1noc(C)c1C(=O)NCCN(C)C | -0.7 | 16
Cc1cc2nc(CSc3ccccc3NC(=O)CC(C)C)cc(=O)n2o1 | / | 8
COc1ccccc1C1CCN(S(=O)(=O)c2ccc(C)cc2)CC1 | -1.2 | /
Nc1ccc(Oc2ccc(F)cc2)nc1 | 6.0 | /
COc1ccc2nc(C)cc(-n3nc(C)cc3C)c2c1 | / | -5
COc1ccc(/C=C2\SC(=S)N(CCC(=O)N(C)C3CCS(=O)(=O)C3)C2=O)cc1 (stereo unspecified) | / | 5
c1ccc2c(c1)OCC(CSc1nc3ccccc3s1)O2 (stereo unspecified) | / | -13
Cc1nc2cc(S(=O)(=O)N3CCC(C(=O)O)CC3)ccc2n1C1CCCC1 | / | -1
Cc1ccc(NC(=O)CN(C)Cc2nnc(-c3cc4c(s3)CCCC4)o2)cc1 | / | -1
CCOC(=O)c1cc(C)[nH]n1 | / | 1
CSCC(O)Cn1ncc2ccccc2c1=O (stereo unspecified) | -0.6 | /
O=S(=O)(NC1=NCC2CCCC2N1)c1ccccc1 (stereo unspecified) | -3.7 | /
CC(C)(C)c1ccc(Oc2ccc(NC(=O)CCCC(=O)O)cn2)cc1 | -3.9 | /
O=C(Nc1ccccc1)c1ccc2c(c1)C(=O)N(CC1CCCO1)C2=O (stereo unspecified) | -2.1 | -1
CC(=O)Oc1ccc(C(=O)c2ccccc2)c(OC(C)=O)c1 | 3.0 | 5

Carrying on:
SMILES | MgrA DNA FP | S aureus helic
Cc1nc(-c2cccc(NC(=O)/C=C\C(=O)O)c2)cs1 | / | 6
Cc1cc(C)c(C(=O)O)c(Cl)n1 | / | 2
CCOC(=O)CSc1nc2c(sc3ccccc32)c(=O)n1Cc1ccccc1 | 3.3 | 10
CC(C)N(CCC#N)C(=O)Nc1ccccc1Cl | / | 1
Cc1cc(NC(=O)Cn2c(=O)/c(=C\c3cccs3)s/c2=C\C(=O)C(C)(C)C)no1 | / | -29
Clc1ccc(-c2cc(C3CCNCC3)[nH]n2)c(Cl)c1 | -0.8 | /
Cc1oc2c(c1C(=O)NCCO)CCCC2 | -1.1 | 2
Cc1cc(-c2ccccc2)nc2cc(C(=O)N(C)C3CCCCC3)nn12 | -4.1 | -10
C1=C(N2CCC(Cc3ccccc3)CC2)CCc2ccccc21 | -0.7 | /
N#Cc1c2ccccc2c(C#N)c2ccccc12 | -13 | 7
Cc1ccc(C2=N/C(=C\c3cccs3)C(=O)O2)cc1[N+](=O)[O-] | 0.2 | /
O=C(CSc1nccc(-c2cccs2)n1)Nc1cccc(C(F)(F)F)c1 | 0.1 | /
COc1cccc(NCc2nnc(SCC(=O)NC3CCS(=O)(=O)C3)n2C2CCCCC2)c1 (stereo unspecified) | / | 11
COC(=O)C1=C(C)NC(SCC(=O)NC2CCCCC2)=C(C#N)C1c1ccccc1F (stereo unspecified) | / | 11
CC(C)c1ccc(NCC(O)CSc2ccccc2)cc1 (stereo unspecified) | -1.5 | /
CC(C)CNC(=O)c1cccc(Cl)c1 | -3.5 | 7
CC1(C)CC(NC(=O)CNc2ccccc2)CC(C)(C)N1 | / | -1
O=C1C(CN2CCCCC2)CCCC1CN1CCCCC1 (stereo unspecified) | / | 12
Cc1ccc2c(CSc3nc(N)cc(N)n3)cc(=O)oc2c1C | / | 0
Cc1ccc(NC(=S)N(CCCN2CCOCC2)C(C)c2cc3ccccc3o2)cc1C (stereo unspecified) | / | -3
O=c1c2ccccc2c(-c2nnc(SCC3CCCCO3)o2)nn1Cc1ccccc1 (stereo unspecified) | / | -11
Cc1ccc(-n2nnnc2SCc2nc3sc4c(c3c(=O)[nH]2)CCCC4)c(C)c1 | / | 11
Cc1csc(NC(=O)C2CCC(CNS(=O)(=O)c3cccc4nsnc34)CC2)n1 (stereo unspecified) | / | 23
CNc1[nH]cnc(=S)c1N | 8.5 | 8
CC(C)S(=O)(=O)c1cnc(-c2ccccn2)nc1N | 3.2 | /

Some values from the list:
In MgrA DNA FP, Cc1ccc(C2=N/C(=C\c3cccs3)C(=O)O2)cc1[N+](=O)[O-] has 0.2
In MgrA DNA FP, CC(C)c1ccc(NCC(O)CSc2ccccc2)cc1 (stereo unspecified) has -1.5

Additional results
SMILES | MgrA DNA FP | S aureus helic
Cc1ccc(C)c(OCC(=O)N/N=C\c2cccn2C)c1 | / | 0
Cc1cc(C)n(-c2nc(-c3ccccc3)cs2)n1 | 0.3 | /
CN(C)/C=C(\C#N)S(=O)(=O)c1ccc(Cl)cc1 | -0.5 | /
N#Cc1cc(Oc2cccnc2)c(Oc2cccnc2)cc1C#N | 4.4 | /
O=C(c1cc2ccccc2cc1O)N1CCOCC1 | / | -11
CS(=O)(=O)N1CCC(C(=O)Nc2ccccc2)CC1 | 1.6 | -5
Cc1cc(Cl)cc2sc(NC(=O)C3CC3)nc12 | / | 0
O=C1OCCN1S(=O)(=O)c1ccc(Cl)cc1 | / | -11
Cc1ccc2c(c1)c(-c1ccccc1)c(-c1ccccc1)n2CC(O)CN1C(=O)c2ccccc2S1(=O)=O (stereo unspecified) | -0.3 | /
CCOC(=O)N1CCC(NC(=O)c2cc(Sc3ccc(Cl)cc3)nc3ccccc23)CC1 | -0.3 | 10
COC(=O)c1c(N2C(=O)Nc3ccccc3N2O)sc(C)c1C | / | 20
C=CCN(C(=O)c1ccccc1OCc1c(C)noc1C)c1nc2c(s1)CCCC2 | / | 1
c1ccc2c(c1)oc1c(NCCCCNc3ncnc4c3oc3ccccc34)ncnc12 | / | -10
Cc1ccc(C2=N/C(=C\c3ccc(N(C)C)cc3)C(=O)O2)cc1[N+](=O)[O-] | -0.6 | /
Cn1ncc2c1ncn1nc(Cc3ccccc3)nc21 | -0.6 | 19
CCCCOC(=O)C1=C(C)NC2=C(C(=O)CC(c3ccccc3)C2)C1c1ccco1 (stereo unspecified) | / | 1
CCc1ccc(CC)c(S(N)(=O)=O)c1 | 3.7 | 5
O=C(CCN1CCCCC1)Nc1nc(-c2ccc(Cl)cc2)cs1 | -2.8 | /
CN1CN=C(SCc2ccc(Cl)c(Cl)c2)NC1 | 3.2 | /
CCOC(=O)c1nn(-c2ccc(Cl)cc2)c(=O)c2c(N)scc12 | / | 8
COCCCNc1c2c(nc3ccccc13)CCC2 | 10 | 6
CON(C)S(=O)(=O)c1cccc(C(=O)NC2CCSc3ccccc32)c1 (stereo unspecified) | / | -2
O=C(O)CCC(=O)N1CCN(C(=O)c2ccco2)CC1 | / | 8
CCOC(=O)c1c(CSC(=N)N)n(-c2ccccc2)c2cc(Br)c(OC(C)=O)cc12 | -3.2 | 11
O=C(O)C(c1ccccc1)N1CCOCC1 (stereo unspecified) | -2.5 | 9

A draw from above in order of formula weight, lowest first:
SMILES | MgrA DNA FP | S aureus helic
CCc1ccc(CC)c(S(N)(=O)=O)c1 | 3.7 | 5
O=C(O)C(c1ccccc1)N1CCOCC1 (stereo unspecified) | -2.5 | 9
COCCCNc1c2c(nc3ccccc13)CCC2 | 10 | 6
O=C(c1cc2ccccc2cc1O)N1CCOCC1 | / | -11
O=C1OCCN1S(=O)(=O)c1ccc(Cl)cc1 | / | -11
Cn1ncc2c1ncn1nc(Cc3ccccc3)nc21 | -0.6 | 19
Cc1cc(Cl)cc2sc(NC(=O)C3CC3)nc12 | / | 0
CN(C)/C=C(\C#N)S(=O)(=O)c1ccc(Cl)cc1 | -0.5 | /
CS(=O)(=O)N1CCC(C(=O)Nc2ccccc2)CC1 | 1.6 | -5
N#Cc1cc(Oc2cccnc2)c(Oc2cccnc2)cc1C#N | 4.4 | /
COC(=O)c1c(N2C(=O)Nc3ccccc3N2O)sc(C)c1C | / | 20
CCOC(=O)c1nn(-c2ccc(Cl)cc2)c(=O)c2c(N)scc12 | / | 8
CON(C)S(=O)(=O)c1cccc(C(=O)NC2CCSc3ccccc32)c1 (stereo unspecified) | / | -2
CCCCOC(=O)C1=C(C)NC2=C(C(=O)CC(c3ccccc3)C2)C1c1ccco1 (stereo unspecified) | / | 1
c1ccc2c(c1)oc1c(NCCCCNc3ncnc4c3oc3ccccc34)ncnc12 | / | -10
CCOC(=O)N1CCC(NC(=O)c2cc(Sc3ccc(Cl)cc3)nc3ccccc23)CC1 | -0.3 | 10
CCOC(=O)c1c(CSC(=N)N)n(-c2ccccc2)c2cc(Br)c(OC(C)=O)cc12 | -3.2 | 11
Cc1ccc2c(c1)c(-c1ccccc1)c(-c1ccccc1)n2CC(O)CN1C(=O)c2ccccc2S1(=O)=O (stereo unspecified) | -0.3 | /

Additional results:
SMILES | MgrA DNA FP | S aureus helic
CCOC(=O)C(Sc1nnnn1-c1ccc(Cl)cc1)c1ccccc1 (stereo unspecified) | / | -8
O=C(CN1C(=O)/C(=C\c2ccc(C(F)(F)F)cc2)Sc2ccccc21)N1CCc2ccccc2C1 | 1.7 | -8
CCCc1c(C(=O)OCC)cnn1-c1ccc(Cl)cc1 | -1.3 | /
COCC(C)n1c(C)cc(C(=O)CSc2ccc(NC(C)=O)cc2)c1C (stereo unspecified) | / | -4
Nc1nnc(CCC(CCc2nnc(N)s2)(CCc2nnc(N)s2)C(=O)c2ccccc2)s1 | 1.3 | -9
CN(C)S(=O)(=O)c1cccc(C(=O)Nc2nnc(Cc3ccccc3)s2)c1 | / | 1
N#Cc1c(/N=C/c2ccccc2O)sc2c1CCC2 | 0.7 | /
C=CCOc1ccc(/C=C2/C(=O)NC(=S)N(c3ccc(Cl)cc3)C2=O)cc1OC | 11 | /
FC(F)(F)c1nn2cc(-c3ccc(Cl)cc3)nc2s1 | 0.2 | /
CCCn1c(=NC(=O)CCS(=O)(=O)c2ccccc2)sc2cc(S(N)(=O)=O)ccc21 | / | -20
CC(C)c1ccc(NC(=O)COc2ncnc3cc(Cl)ccc23)cc1 | -0.8 | /
CC(O)Cn1c(=S)[nH]c2ccc(Br)cc2c1=O (stereo unspecified) | / | 14
CCc1nnc(SCC(=O)Nc2ccccc2C(F)(F)F)c2cc3occc3n12 | / | -23
Cc1ccc(OCC(=O)N2c3ccccc3CC2C)cc1 (stereo unspecified) | 0.3 | -12
O=C(c1cccs1)N1CCCc2ccccc21 | -1.9 | 4
O=C(NCc1ccccc1)C(=O)c1c(O)[nH]c2ccccc12 | -5.6 | 3
COc1cc(NC(=O)c2ccccc2)cc(OC)c1OC | 0.3 | -4
CN(Cc1ccccc1)S(=O)(=O)c1cc(F)ccc1CN1C(=O)c2cccnc2C1=O | / | -27
CN(C)C(=O)c1cn(-c2ccccc2)nc1-c1cccs1 | -3.4 | -14
CCOc1ccc(N=C2NC(=O)S/C2=C\c2ccc(OC)cc2)cc1 | 3.5 | -2
COc1ccc(NC(=O)c2ccc3c(c2)NC(=O)c2ccccc2S3)cc1Cl | 0.5 | 7
Cc1nn(-c2ccccc2)c2c1N(C(=O)CCC(=O)N1CCN(c3ccccc3F)CC1)CCS2 | / | 2
Cc1oc(S(=O)(=O)N2CCOCC2)cc1C(=O)O/N=C(\N)c1ccc(C(C)(C)C)cc1 | / | -13
COc1ccc(OCC(O)CNC(=O)C2=Cc3cc(Cl)ccc3OC2)cc1 (stereo unspecified) | -1.8 | /
CC(C)S(=O)(=O)c1csc(C(=O)OCC(=O)c2ccccc2)c1N | -0.1 | /

(list continues)
SMILES | MgrA DNA FP | S aureus helic
CS(=O)(=O)N(CCC#N)Cc1ccc(/C=C2\C(=O)Nc3ccccc32)o1 | / | -22
Nn1c(C2CCCO2)n[nH]c1=S (stereo unspecified) | / | 4
COc1ccccc1CN(C(=O)c1noc2c1CCc1sccc1-2)C1CCN(C)CC1 | / | 19
O=C(CN1C(=O)S/C(=C/c2ccc(N3CCCCCC3)o2)C1=O)N1CCCCCC1 | / | -240
Cc1ccc(S(=O)(=O)N=S2(=O)CCCS(=O)(=O)C2)cc1 (stereo unspecified) | 3.5 | /
CC(=O)Nc1ccc2c(c1)ncn2C(C)(C)C | / | 10
O=C(NCc1ccc2c(c1)OCO2)c1ccc(CS(=O)(=O)c2cccc(C(F)(F)F)c2)o1 | -0.2 | 19
O=C(c1cc(-c2ccc(O)cc2)on1)N1CCc2ccccc2C1 | / | 9
CCOC(=O)c1c(NC(=O)c2cnn3c2NC(c2ccc4c(c2)OCO4)CC3C(F)(F)F)sc2c1CCC2 (stereo unspecified) | 0.5 | /
FC(F)(F)c1ccc(=S)[nH]c1 | / | 2
CCNc1nc(N2CCCC2)nc(N2CCCC2)n1 | 2.8 | 0
CC(C(=O)O)n1cnc2c1c(=O)[nH]c(=O)n2C (stereo unspecified) | / | 6
COC(=O)C1C(=O)NC(SC)=C(C#N)C1c1ccc(Cl)cc1 (stereo unspecified) | / | 3
